Choline anaer gr: growth inhibitors of anaerobic choline-fed gram-negatives, minimal medium, absorbance; Gram-negative bacterium anaerobic choline minimal medium; active compounds read low; many inactives read as strong as hits in the columns shown; calls only; 55,000 compounds, 0.2% hits; AID 1963822, 2024;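 active = growth z-score on choline under -2 at 7 or 20 h with little or no fall on glycerol, limits in tiers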;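 note: stock transfer was 300 nL into about 50 µL; the organism is E. coli; final concentration not given here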
Choline anaer gr early: also measured in Choline anaer gr; calls as there; z-score; measured here: choline growth z-score, timepoint 1;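 score of optical density at 7 h as mean of two plates; lower means less growth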
* = called active by the depositor; i = inactive; & = joins results of further samples.

SMILES	Choline anaer gr	Choline anaer gr early
Cc1cccc(C)c1NC(=O)c1ccc2nnc(C)n2c1	i	-0.17
CCOC(=O)CC1=CC(=O)N(CC(=O)Nc2ccc3c(c2)OCO3)c2cc(C)c(C)cc2N1	i	0.22
COCCNC(=O)c1ccc(Cn2c(=O)c3cc(OC)c(OC)cc3n(Cc3ccc(Cl)cc3)c2=O)cc1	i	0.38
CCOc1ccc(CNC(=O)CSc2nc3ncccc3n3cccc23)c(OC)c1	i	0.19
Cc1ccccc1OCc1nn2c(C(C)C)nnc2s1	i	-0.34
Cc1nnc(-c2c(C)[nH]c(C)c2S(=O)(=O)N2CCCCCC2)o1	i	-0.45
Cc1ccc(C)c(COC(=O)c2nnn(-c3ccc(C)c(C)c3)c2C)c1	i	1.7
O=C1C(=O)N(C2CCN(C(=O)C3CCCCC3)CC2)CCN1Cc1cccc(F)c1	i	-0.58
CC(C)(C)c1ccc(OCC(=O)Oc2cccc(-n3cnnn3)c2)cc1	i	1.4
COc1cccc(NC(=O)CCn2cnc3c(-c4ccc(C)cc4)noc3c2=O)c1	i	0.96

A different layout for 3 compounds above:
SMILES | Choline anaer gr | Choline anaer gr early
O=C1C(=O)N(C2CCN(C(=O)C3CCCCC3)CC2)CCN1Cc1cccc(F)c1 | i | -0.58
CC(C)(C)c1ccc(OCC(=O)Oc2cccc(-n3cnnn3)c2)cc1 | i | 1.4
COc1cccc(NC(=O)CCn2cnc3c(-c4ccc(C)cc4)noc3c2=O)c1 | i | 0.96

The results go on.
SMILES	Choline anaer gr	Choline anaer gr early
Cc1nc(-c2ccc3c(c2)CCN3C(=O)Cc2ccccc2Br)no1	i	-0.87
Cc1nc(-c2csc(S(=O)(=O)N3CCCC(C(=O)NC4CC4)C3)c2)no1 (stereo unspecified)	i	1.8
O=C(NCCC1=CCCCC1)c1cn2c(n1)CCCC2	i	-0.1
COC(=O)Cn1c(=O)c2c(nc3n2CCCN3c2ccc(Cl)cc2)n(C)c1=O	i	-0.55
CCc1cccc(C)c1NS(=O)(=O)c1c(C(=O)N2CCCC2)c(C)n(C)c1C	i	-0.48
CCOc1ccc(NC(=O)Cn2cc(C(=O)OC)c(=O)c3ccc(C)nc32)cc1	i	0.46
Cc1ccc2[nH]cc(CCNC(=O)c3cccc(NC(=O)c4nnc(C)s4)c3)c2c1	i	0.02
CCOc1ccc(C2Nc3ccc(Br)cc3[C@H]3OCCC[C@@H]23)cc1 (stereo partly specified)	i	2.6
Cn1cnc2cc(-c3noc(/C=C/c4ccccc4)n3)ccc21	i	6.8
Cc1ccc(-c2nn3c(=O)cc(CN4CCN(C(=O)Nc5ccc(C)cc5Cl)CC4)nc3s2)cc1	i	-0.15
Cc1ccc(N2CC(C(=O)NCc3nnnn3-c3ccc(F)c(F)c3)CC2=O)cc1 (stereo unspecified)	i	-0.54
CCOc1cc(CN2CCCC2c2c(C)noc2C)ccc1O (stereo unspecified)	i	-0.91
Cn1c(=O)n(C)c2cc(NC3=C(C(N)=O)S(=O)(=O)c4ccccc43)ccc21	i	-0.47
COc1ccc(NC(=O)c2cc3c([nH]c2=O)CCCC3=O)cc1	i	0.89
Cc1cc(-c2nnc3sc(COc4ccccc4Cl)nn23)n[nH]1	i	0.5
Cc1cc(C2CCCN2C(=O)c2cnn3cccnc23)no1 (stereo unspecified)	i	0.33
OC(CN1CCN(c2ccccc2)CC1)c1ccc2c(c1)OCO2 (stereo unspecified)	i	-0.38
c1cn(Cc2nc(-c3ccc4c(c3)OCO4)no2)cn1	i	-1.1
COc1ccc(Cl)cc1S(=O)(=O)c1cnc(N2CCOCC2)nc1N	i	0.34
COCCn1nnc2cc(S(=O)(=O)N3CCCC3C(=O)N3CCN(c4ccccc4)CC3)ccc21 (stereo unspecified)	i	-1.4
COC(=O)c1ccccc1NC(=O)CSc1nc2ncccc2o1	i	-0.36
Cc1ccccc1C1C2=C(CC(c3ccc(Cl)cc3)CC2=O)Nc2onc(C)c21 (stereo unspecified)	i	0.13
Cc1cc2nc3c(=O)[nH]c(=O)nc-3n(C[C@@H](O)[C@@H](O)[C@@H](O)COP(=O)(O)O)c2cc1C	i	-0.71
O=C(O)c1cc(N2CCCCC2)ccc1NC(=O)C1CCCC1	i	1.5
CCCCC/C=C\C/C=C\C/C=C\C/C=C\CCCC(=O)O[C@H](COCCCCCCCCCCCCCCCC)COP(=O)([O-])OCC[N+](C)(C)C	i	-1.6&-0.43
O=C(Cn1c2ccccc2n2c(=O)cc(-c3ccc(Cl)cc3)nc12)Nc1ccc(F)cc1F	i	-0.55
COc1ccc(-c2noc(N3CCCC(C(=O)Nc4ccc(S(N)(=O)=O)cc4)C3)n2)cc1 (stereo unspecified)	i	-0.88
O=C(NCCC1=CCCCC1)C1CCCN(c2ccc(-c3ccc(F)cc3)nn2)C1 (stereo unspecified)	i	-0.96
Cc1cc(C(=O)Nc2ccc3c(c2)OCCO3)c2c(=O)n(C)c(=O)n(C)c2n1	i	-1
COc1ccc(NC(=O)NCCNC(=O)c2nonc2N)cc1	i	-0.39

Structural class: the compounds so far containing fluorine.
SMILES	Choline anaer gr	Choline anaer gr early
O=C1C(=O)N(C2CCN(C(=O)C3CCCCC3)CC2)CCN1Cc1cccc(F)c1	i	-0.58
Cc1ccc(N2CC(C(=O)NCc3nnnn3-c3ccc(F)c(F)c3)CC2=O)cc1 (stereo unspecified)	i	-0.54
O=C(Cn1c2ccccc2n2c(=O)cc(-c3ccc(Cl)cc3)nc12)Nc1ccc(F)cc1F	i	-0.55
O=C(NCCC1=CCCCC1)C1CCCN(c2ccc(-c3ccc(F)cc3)nn2)C1 (stereo unspecified)	i	-0.96

Returning to the listing; the two compounds before the break are reprinted first.
SMILES	Choline anaer gr	Choline anaer gr early
Cc1cc(C(=O)Nc2ccc3c(c2)OCCO3)c2c(=O)n(C)c(=O)n(C)c2n1	i	-1
COc1ccc(NC(=O)NCCNC(=O)c2nonc2N)cc1	i	-0.39
COc1ccc(Cn2cccc(S(=O)(=O)N3CCCC3)c2=O)cc1F	i	0.43
COc1ccccc1CNC(=O)C1(C)Cc2ccccc2C(=O)N1c1cccc(C(C)C)c1 (stereo unspecified)	i	0.02
CCc1cc(Sc2ccc(N)cc2)n2nc(C)nc2n1	i	0.65
Cc1cc(C2CCCN2S(=O)(=O)c2ccc(Br)cc2)no1 (stereo unspecified)	i	1.6
Cc1csc(-c2cc(S(=O)(=O)NCc3ccc(N(C)C)cc3)c(C)s2)n1	i	-1.7
NS(=O)(=O)c1ccc(NC(CNS(=O)(=O)c2ccccc2)c2ccccc2)cc1 (stereo unspecified)	i	0.7
Cc1cccc2c1-c1sc(C(=O)N3CCC(C)CC3)cc1CO2	i	1
O=C(NC1CCN(Cc2ccccc2)CC1)C1CCN(c2cnccn2)CC1	i	0.53
CC(C)(C)C1(c2ccccc2)NC(=O)N(CC(=O)N2CCOCC2)C1=O (stereo unspecified)	i	-0.31
CCOc1ccc2c(c1)cc(C(=O)Nc1ccc3c(c1)OCCO3)n2C	i	-0.86
C[N+](C)(C)CCOC(=O)CCC(=O)OCC[N+](C)(C)C	i	-0.45&0.9
O=C(NCCc1nc2cccnc2n1C1CCCC1)Nc1ccc2c(c1)OCO2	i	-1.1
CCOc1ccc(-c2csc(C)n2)cc1S(=O)(=O)N1CCC2(CC1)OCCO2	i	-1.2
CCC(Oc1ccccc1F)C(=O)NCc1csc(-c2ccc(OC)cc2)n1 (stereo unspecified)	i	1
CCOC(=O)c1ccc(NC(=O)c2ncn(-c3ccccc3)n2)cc1	i	0.57
O=C(Nc1ccc(Br)cc1F)C1CCCN(S(=O)(=O)c2cccc3cccnc23)C1 (stereo unspecified)	i	0.28
O=S(=O)(NC1CCCCCC1)c1ccc(-c2cnc(C3CC3)o2)s1	i	0.68
CCc1cc2c(NCc3ccc(F)cc3)ncnc2s1	i	-0.46
O=C(CSc1nnc2n(CC3CCCO3)c(=O)c3sccc3n12)N1CCc2ccccc2C1 (stereo unspecified)	i	-0.51
O=C(Nc1ccccc1)N1CCC2(CC1)Nc1ccccc1-n1cccc12	i	-0.32
CC(C)c1cc(C2CCCN2C(=O)c2cc(C3CC3)on2)no1 (stereo unspecified)	i	0.01
CCC(C(=O)NC1CCCCC1)N1C(=O)CCCc2ccccc21 (stereo unspecified)	i	1
CC1(C(=O)NCc2ccc(F)cc2)CCN(C(=O)NC2COc3ccccc3C2)CC1 (stereo unspecified)	i	-2
COc1cc(OC)c(NC(=O)c2cnn(-c3ccc(Br)cc3)c2)cc1Cl	i	0.97
Cc1nnc2sc(-c3ccc(CNS(=O)(=O)c4ccccc4)cc3)nn12	i	1.8
CCOC(=O)CSc1nc2sc(C(=O)OCC)c(C)c2c(=O)n1Cc1ccc(OC)cc1	i	0.63
CC1=C(c2ccc(C)c(C)c2)S(=O)(=O)N(Cc2ccc(C(=O)NCCc3ccccc3)cc2)C1=O	i	0.04
Cc1nc(Oc2ccc3cnccc3c2)c2c3c(sc2n1)CCCC3	i	-0.1
Cc1onc(-c2ccccc2Cl)c1C(=O)NC(c1nnc(-c2ccccc2)o1)c1ccccc1F (stereo unspecified)	i	0.75
CCC(CC)C(=O)Oc1cccc(-n2cnnn2)c1	i	0.6
Cc1sc2cc(C(=O)NCC3CC3)[nH]c2c1CN1CCCC1	i	-0.74
CCn1c(=O)c2c(C(=O)NCCCN3CCCC3=O)cc(=O)n(CC)c2n(C)c1=O	i	0.22
O=C(NC1CCCc2ccccc21)c1cccc(Oc2cc(-c3ccccc3)ncn2)c1 (stereo unspecified)	i	0.93
O=C(c1ccc(Br)cc1)N1CCC2(CC1)Nc1ccccc1-n1cccc12	i	-1.6
Cc1cc(C)cc(Oc2nc3ccccc3n3c(=O)[nH]nc23)c1	i	0.97
O=S(=O)(NCC1(c2ccccc2)CCCOCC1)c1ccc(Cl)cc1 (stereo unspecified)	i	1.6
CC(C)Oc1ccc(C(=O)N2CCN(CCc3ccccn3)CC2)cc1	i	-1.6
O=c1c2cc3c(cc2nc(SCc2nc(-c4ccc(F)cc4)no2)n1CC1CCCO1)OCO3 (stereo unspecified)	i	0.52
Clc1cccc2nc3n(c12)CCN(CCc1ccccc1)C3	i	0.17
O=C(Nc1cccc(CCc2nc3ccccc3[nH]2)c1)c1cc2cc(Cl)ccc2[nH]1	i	0.75
Cc1ccc(CSc2nnc3n(CC(C)C)c(=O)c4sccc4n23)cc1	i	-0.49
CCOC(=O)c1[nH]c(C)c(S(=O)(=O)Nc2ccc(OC)cc2OC)c1C	i	-0.81
Cn1c(=O)c(C(=O)NCCc2ccc(Cl)cc2)nc2ccccc21	i	-0.16
Cc1cc(C)c(S(=O)(=O)Nc2ccc(-c3ccc(N4CCC(C)CC4)nn3)cc2)cc1C	i	0.88
COc1ccccc1NC(=O)Nc1nc(CC(=O)NC2CCCCC2)cs1	i	1.8
CS(=O)(=O)c1nc2ccc(NS(=O)(=O)c3cc(F)cc(F)c3)cc2s1	i	-0.64
Cc1nn(-c2ccccc2)cc1-c1noc(C(=O)NCCC2=CCCCC2)n1	i	1.7
Cc1c(C2=CCN(S(=O)(=O)c3cnc[nH]3)CC2)c2ccccc2n1Cc1ccc(F)cc1	i	0.65
CCN(Cc1ccccc1)C(=O)CN1C(=O)CSc2ccc(S(=O)(=O)N(CC)CC)cc21	i	1.4
O=C(c1ccc(Cl)s1)N1CCC(Nc2ncnc3c2CCC3)C1 (stereo unspecified)	i	0.26

Further entries follow.
SMILES	Choline anaer gr	Choline anaer gr early
CCNc1cc(C)nc(N2CCN(S(=O)(=O)c3ccc(C)cc3)CC2)n1	i	-0.27
CCCC[C@@]1(C2CCCC2)Cc2cc(OCC(=O)O)c(Cl)c(Cl)c2C1=O	i	0.72
O=c1nc(SCc2ccc(Cl)cc2)c2c(n1CC1CCCO1)CCC2 (stereo unspecified)	i	0.23
CC(C)NC(=O)C(C)N1C(=O)CCCc2ccccc21 (stereo unspecified)	i	-0.14
CCC(=O)n1nc(-c2ccccc2C)nc1N	i	-0.19
COc1ccc(C)cc1S(=O)(=O)NCCc1sc2nc(-c3ccc(Cl)cc3)nn2c1C	i	-0.56
CCOc1ccc(-c2noc(CN3C(=O)COc4cc(C(C)(C)C)ccc43)n2)cc1	i	0.3
CC(C)c1cc(C(=O)N2CCCCC2)no1	i	0.59
CNC(=O)Nc1ccc(C2(C(=O)Nc3ccc4c(c3)CCC4)CCC2)cc1	i	-0.09
CCc1ccc(-n2c(=O)c3cccnc3n2CC(=O)Nc2ccc(C)cc2Cl)cc1	i	-0.51

Retrieved one by one from above:
SMILES	Choline anaer gr	Choline anaer gr early
CCc1ccc(-n2c(=O)c3cccnc3n2CC(=O)Nc2ccc(C)cc2Cl)cc1	i	-0.51
O=c1nc(SCc2ccc(Cl)cc2)c2c(n1CC1CCCO1)CCC2 (stereo unspecified)	i	0.23

The list continues.
SMILES	Choline anaer gr	Choline anaer gr early
COc1ccc(CCNC(=O)Cc2csc3nc(-c4ccccc4)cn23)cc1OC	i	-0.14
CCCCC(=O)NC(c1ccc(OC)cc1)c1ccc2cccnc2c1O (stereo unspecified)	i	1.2
C=CCN(C)C(=O)c1cnn2c3c(cnc12)CCCCCC3	i	-0.08
O=C(Nc1ccc2c(c1)OCCO2)N1CCCC1c1ccccc1F (stereo unspecified)	i	0.22
O=c1oc2ccccc2n1Cc1noc(-c2ccsc2)n1	i	0.13
COc1cccc(NC(=O)CNS(=O)(=O)c2cc(-c3noc(C)n3)ccc2C)c1	i	-0.15
Cc1cccc(-c2noc(-c3scc(-c4cccc(C)c4)c3-n3cccc3)n2)c1	i	0.67
COc1ccc(-c2nc(CCNC(=O)C(C)Oc3ccc(C(C)(C)C)cc3)cs2)cc1 (stereo unspecified)	i	1.6
CCn1c(=O)c(N2CCC(C(=O)NCCc3ccc(S(N)(=O)=O)cc3)CC2)nc2ccccc21	i	-0.27
Cc1nc(-n2nc(C)c(Cc3ccccc3)c2C)sc1C(=O)N1CCOCC1	i	-0.49
O=C(CCC1=NS(=O)(=O)c2ccccc2N1)N1CCN(c2ccccc2F)CC1	i	0.37

The list is partial; rates above refer to the full screens.
